PINK1 modulator: A Quantitative High throughput Screen to Identify Chemical Modulators of PINK1 Expression; 0.2% of 410,000 active; Potency, µM (titrated, usually from 76.6 µM), without a hit: at the highest dose activation (PINK1 increase), actives largely listed as activators; PINK1 immunofluorescence, high-content cytometry, 24 h; active = well fitted activation curve with a large enough effect; inconclusive = small, poorly fitted or top-dose-only effect; inactive = flat fitted curve, though single readings scatter; cell line not stated here;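 further: potency means the concentration at half of the fitted maximal effect; % of control where 0% means no effect; nearly all actives have a fitted effect of over 65% in size; a mitochondrial uncoupler was the plate control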
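Cells are seeded, rested 12 hours, then given compound at five concentrations or DMSO for 24 hours. After fixation, blocking and antibody staining, PINK1 amount and mitochondrial localization are scored; CCCP serves as control.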
D2 agonist: Beta-Arrestin HTS for Positive Allosteric Modulators of the Human D2 Dopamine Receptor: Agonists | D(2) dopamine receptor (Homo sapiens), P14416 | DiscoveRx PathHunter D2 beta-arrestin, luminescence, 90 min; 100% = 57 uM dopamine signal | activation, % (concentration not given with the values) | 0.084% of 360,000 active; in the data active = activation above about 40%; inconclusive = about 15% to 40%; inactive = below about 15%; further: compound concentration not given in the record; the text of the record calls up to 30% inactive
Target sequence (P14416 whole entry, looked up): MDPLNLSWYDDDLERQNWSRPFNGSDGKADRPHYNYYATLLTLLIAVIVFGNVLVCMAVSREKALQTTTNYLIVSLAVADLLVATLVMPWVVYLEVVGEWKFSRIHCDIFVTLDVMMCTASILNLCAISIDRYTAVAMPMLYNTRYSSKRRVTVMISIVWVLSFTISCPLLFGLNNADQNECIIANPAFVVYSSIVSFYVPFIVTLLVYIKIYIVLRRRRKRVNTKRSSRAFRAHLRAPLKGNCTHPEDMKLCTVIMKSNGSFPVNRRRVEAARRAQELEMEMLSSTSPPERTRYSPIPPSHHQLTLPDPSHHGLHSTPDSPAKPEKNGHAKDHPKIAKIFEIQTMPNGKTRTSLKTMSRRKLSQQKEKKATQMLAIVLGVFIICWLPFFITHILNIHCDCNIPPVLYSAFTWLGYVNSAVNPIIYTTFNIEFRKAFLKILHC
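Agonist mode: compounds alone added to overnight-plated D2 PathHunter cells for 90 min at 37 C, with 57 uM final dopamine (EC100) defining full response. Beta-arrestin recruitment detected by chemiluminescent reagent, read after 1 h at ambient temperature.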
Six1-Eya2 inh: qHTS Assay for Inhibitors of the Six1/Eya2 Interaction; Homeobox protein SIX1 (Homo sapiens) + Protein phosphatase EYA2 (Homo sapiens), …; activity change, % (concentration not given with the values); AlphaScreen GST-Six1/His-Eya2 binding, biochemical; active compounds read low; control for the full effect not named in the record; 0.56% of 360,000 active; AID 651725, 2012; in the data active = activity change below about -65%; inconclusive = about -30% to -65%; inactive = above about -30%; further: on the % scale 0 is the no-effect control and ±100 the full control effect
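Homogeneous AlphaScreen proximity assay pairing GST-Six1 with His-tagged Eya2 (added as 5X mix: 250 nM and 500 nM) in 50 mM Tris pH 8.0, 300 mM NaCl, 1 mM TCEP. Glutathione donor and nickel acceptor beads; 1 h, 37 °C, dark.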
D2 PAM: Beta-Arrestin HTS for Positive Allosteric Modulators of the Human D2 Dopamine Receptor: Potentiators; DiscoveRx D2 beta-arrestin cells, luminescence, 90 min; 100% = 57 uM dopamine signal; potentiation, % (test concentration not listed); 0.23% of 360,000 active; AID 624464, 2012; active = potentiation of 50% or more; inconclusive = 30% to 50%; inactive = 30% or less;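 further: compound concentration not given in the record; tested on top of an EC20 dose of dopamine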
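D2 cells co-treated with compound plus 50 nM dopamine (EC20) for 90 min at 37 deg C to detect potentiation. Beta-arrestin recruitment was read as enzyme-fragment luminescence after 1 h at ambient temperature. Full response was set by 57 uM dopamine.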
TRPML1 agonist: qHTS for Agonists of the Human Mucolipin Transient Receptor Potential 1 (TRPML1) | 0.12% of 410,000 active | activation, % (test concentration not listed) | Mucolipin-1 (Homo sapiens), Q9GZU1 | TRPML1-expressing cells, Ca2+ dye fluorescence, FDSS; host cell line not named in the record; reference of the full effect not given here | AID 624414, 2012; in the data active = activation above about 50%; inconclusive = about 30% to 50%; inactive = below about 30%; further: 0% is about no effect; the text of the record puts the active cut at 80%
Target sequence (Q9GZU1 whole entry, looked up): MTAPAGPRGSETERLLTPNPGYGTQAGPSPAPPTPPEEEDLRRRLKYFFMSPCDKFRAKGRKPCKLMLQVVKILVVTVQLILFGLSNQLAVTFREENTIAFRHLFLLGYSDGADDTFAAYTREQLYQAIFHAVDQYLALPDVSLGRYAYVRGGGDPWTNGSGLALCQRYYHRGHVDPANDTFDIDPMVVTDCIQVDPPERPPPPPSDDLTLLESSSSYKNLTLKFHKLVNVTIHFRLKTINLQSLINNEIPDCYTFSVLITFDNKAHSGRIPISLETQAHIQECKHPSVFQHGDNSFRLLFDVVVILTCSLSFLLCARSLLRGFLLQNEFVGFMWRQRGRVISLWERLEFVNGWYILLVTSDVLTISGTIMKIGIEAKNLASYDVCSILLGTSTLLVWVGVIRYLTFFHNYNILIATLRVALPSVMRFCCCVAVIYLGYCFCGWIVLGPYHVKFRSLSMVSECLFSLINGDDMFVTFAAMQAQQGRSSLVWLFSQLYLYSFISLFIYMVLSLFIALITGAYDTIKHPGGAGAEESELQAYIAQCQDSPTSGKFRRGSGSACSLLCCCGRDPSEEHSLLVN
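Calcium fluorescence on an FDSS kinetic reader gave the read-out. Tet-induced TRPML1-DL cells were plated overnight, dye-loaded (Ca8 with quencher, 45-90 min, room temperature, dark), then read 110 s after compound addition, and again 110 s after 4uM final 54-4 (EC80).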
TRPML1 blocker: qHTS for Inhibitors of the Human Mucolipin Transient Receptor Potential 1 (TRPML1); Mucolipin-1 (Homo sapiens), Q9GZU1; TRPML1-inducible cells, Ca2+ dye fluorescence, FDSS; active compounds read low; inhibition of EC80 agonist-evoked calcium signal; activity change, negative = inhibition, % (concentration not given with the values); 0.02% of 390,000 active; in the data active means activity change below about -50%; inconclusive means about -30% to -50%; inactive means above about -30%;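 further: stimulus is agonist 54-4 at its EC80 concentration; on the % scale 0 is the no-effect control and ±100 the full control effect; the text of the record puts the active cut at -80%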
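Tet-induced TRPML1-DL cells loaded with Ca8 no-wash calcium dye were read kinetically on FDSS. Compound addition was followed by EC80 agonist 54-4 (4 uM final); inhibition was read over 110 s.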
* = called active by the depositor; ? = inconclusive; . = no result given; & = joins results of further samples.

Start of the listing, in advance, 2 compounds:
SMILES	PINK1 modulator	D2 agonist	Six1-Eya2 inh	D2 PAM	TRPML1 agonist	TRPML1 blocker
O=C(N/N=C/c1ccc(OC(=O)c2ccccc2)cc1)c1cccnc1	4.7%	-2.2	-6	1	0.8	17
COc1ccc(NC(=O)c2cccc3c2C(=O)N(CC2CCCO2)C3)cc1OC (stereo unspecified)	4.1%	2.0	1	4	0.0	-1

This part in full, from the first entry:
SMILES	PINK1 modulator	D2 agonist	Six1-Eya2 inh	D2 PAM	TRPML1 agonist	TRPML1 blocker
O=C(N/N=C/c1ccc(OC(=O)c2ccccc2)cc1)c1cccnc1	4.7%	-2.2	-6	1	0.8	17
COc1ccc(NC(=O)c2cccc3c2C(=O)N(CC2CCCO2)C3)cc1OC (stereo unspecified)	4.1%	2.0	1	4	0.0	-1
Cc1ccc(-n2cnc3sc(C)c(C)c3c2=O)cc1	11%	-4.6	-3	1	-0.8	1
COc1ccc(CNC(=O)CN(c2ccc(OC)c(Cl)c2)S(=O)(=O)c2ccc(C)cc2)cc1	3.6%	-1.5	-10	-37	0.4	-5
COc1cccc(CNC(=O)C2CC(=O)N(C3CCCCC3)C2)c1 (stereo unspecified)	0.8%	-5.4	3	-12	-0.6	11
O=C(Cc1ccccc1)NNC(=S)Nc1ccccc1	1.3%	-1.3	-11	-12	-0.2	-10
O=C(CSCc1cnn(-c2ccccc2)c1-n1cccc1)N1CCN(Cc2ccccc2)CC1	0.6%	-0.9	-17	7	1.2	5
C=CCNC(=O)/C(C#N)=C/c1c(N2CCN(c3ccc(OC)cc3)CC2)nc2c(C)cccn2c1=O	1.3%	-2.6	?	-7	2.9	-3
CCC(=O)Nc1cc2nn(-c3ccc(C)cc3)nc2cc1C	7.4%&0.9%	-2.4	2	0	-0.9&-0.4	14&-10
C#CCOCCOCCOCCNc1nc(N2CCN(C(=O)CCCCCCCCCCNC(=O)Cn3cc(C[C@@H](C)O)nn3)CC2)nc(N2CCN(C(=O)CCCCCCCCCCNC(=O)[C@@H]([C@H](C)CC)n3cc(CCCCCN)nn3)CC2)n1	-1.8%	12	-6	14	0.9	-11
COc1ccc(NS(=O)(=O)c2c(C)cc(C)cc2C)cn1	0.9%	-4.7	20	-5	1.8	-1
CCC(=O)n1nc(-c2cccnc2)nc1NCc1ccccc1	1.1%	4.4	-8	-3	1.7	27
CCOc1ccc(NC(=O)CN(C)C(=O)C(C)Oc2ccc(Cl)cc2)cc1OCC (stereo unspecified)	8.1%	-4.3	-9	-8	1.7	11
O=C(NCCO)C1CCN(S(=O)(=O)c2ccc(F)cc2)CC1	-0.2%	0.5	5	1	-0.1	8
COC(=O)c1cc(C(=O)Nn2cnnc2)cc([N+](=O)[O-])c1	2.1%	1.9	-6	-11	.	.
CC1CCCCN1C(=O)CSc1nc2c(c(=O)n(C)c(=O)n2C)n1C (stereo unspecified)	0.9%	7.3	2	5	-0.1	0
COc1cccc(N(CC(=O)NC(C)c2ccccc2)S(C)(=O)=O)c1 (stereo unspecified)	-2.6%	-5.3	3	-11	0.7	-8
CCOC(=O)c1ccc(NC(=O)NCc2ccc(OC)cc2)cc1	5.9%	2.5	6	-2	1.6	7
CCS(=O)(=O)NC(=O)C1(C)CCN1C(=O)C1(c2ccc(Cl)cc2)CC1 (stereo unspecified)	0.8%	-4.3	1	-10	-0.4	.
O=C(CSc1ccccn1)N/N=C/c1ccccc1[N+](=O)[O-]	-3.1%	-1.0	1	-26	0.3	-17
COc1cc(C(=O)OC2CCOC2=O)cc(Cl)c1OC (stereo unspecified)	-0.1%	1.8	-6	-1	0.1	21
CC1CCC(C(O)(C(=O)c2ccccc2)c2ccccc2)C(=O)C1 (stereo unspecified)	7.3%	-6.0	4	-13	0.8	67
O=C(Cn1c(=O)oc2cc(S(=O)(=O)NCc3ccccc3)ccc21)Nc1ccc(F)c(Cl)c1	5.5%	.	.	.	1.1	-8
O=C(CSc1nnc(SCc2cccc3ccccc23)s1)c1ccc2c(c1)OCO2	2.0%	-2.9	1	-17	0.5	-7
Cc1nn2c(=O)cc(COC(=O)c3ccccc3NC(=O)COc3ccccc3C)nc2s1	-0.8%	.	.	.	2.0	4
CCCCNc1cc(C)nc(NCc2ccccc2)n1	?	-9.8	-2	-38	21	40
CC1(C)C[C@H]2C3=CCC4[C@@]5(C)CC[C@H](O)[C@](C)(CO)C5CC[C@@]4(C)[C@]3(C)C[C@H]3O[C@@H]1[C@H](O)[C@]32CO (stereo partly specified)	0.4%	-2.7	3	-3	0.5	0
COC(=O)c1cc(OC)c(OC)cc1NC(=O)CSCc1c(C)noc1C	2.2%	-1.4	-14	2	-1.4	3
CC1CCN(CCCCOc2ccc(Br)cc2)CC1	1.6%	-4.6	4	-27	2.1	16
CNc1ncnc2c1ncn2[C@@H]1O[C@H](CO)[C@@H](O)[C@H]1O	2.6%	-3.3	5	-2	-0.2	0
COc1ccccc1-n1c(C)cc(/C=C2/C(=N)N3C(=NC2=O)SN=C3S(C)(=O)=O)c1C	1.6%	-2.0	-11	-4	0.7	33
CSc1ncccc1C(=O)NNc1cc(Cl)ccc1Cl	-0.3%	8.0	1	-7	1.3	9
COc1cc(NC(C)C(=O)N2CC(C)OC(C)C2)cc(OC)c1 (stereo unspecified)	1.4%	1.0	-7	-9	-0.3	16
COc1ccc(/C=C(\C#N)C(=O)NCCCn2ccnc2)cc1	-0.4%	-2.0	-1	-3	0.0	-6
CC1(C)CC(=O)c2cnc(NCC3CCCO3)nc2C1 (stereo unspecified)	-0.5%	-1.6	0	-9	0.8	17
COC(=O)c1ccccc1NC(=O)c1cnn2c(C)cc(C)nc12	-1.1%	-2.6	6	-4	3.6	-7
Cc1cccc(NC(=S)N(CCN(C)C)C(C)c2ccco2)c1 (stereo unspecified)	0.5%	-5.7	-2	-28	0.4	0
COc1ccccc1OCCNC(=O)CC(NC(C)=O)c1ccccc1 (stereo unspecified)	1.3%	0.7	4	-15	-0.3	4
CC(=O)c1ccc(N2CCN(S(=O)(=O)c3ccc(-c4coc(C)n4)cc3)CC2)cc1	1.8%	.	.	.	1.2	32
O=C(NCCc1csc2nc(-c3ccccc3F)nn12)c1ccco1	0.8%	.	.	.	0.9	-23
CC(C)OC(=O)CSc1nnc(C2CCCCC2)n1N	-0.4%	3.3	-3	5	0.6	-13
CCCOc1ccccc1-n1sc2c(c1=S)-c1cc(OC)cc3c1N(C(=O)C3=O)C2(C)C	?	-16	-22	-51	-0.6	-20
O=C(Nc1c(Cl)cc(Cl)cc1C(=O)NCc1cccnc1)c1ccc(Cl)cc1Cl	3.8%	-3.7	-2	-8	-0.8	0
O=C(Nc1cccc(-n2cnnn2)c1)c1ccoc1COc1ccc(Cl)cc1	4.9%	5.0	-2	-2	1.2	11
CN(C(=O)CSc1nc2ccc(NC(=O)c3ccccc3F)cc2s1)c1ccccc1	11%	.	.	.	3.1	-8
COC(=O)c1ccc(/C=C2\SC(=S)N(CCCC(=O)N3CCOCC3)C2=O)cc1	2.3%	-1.4	0	-5	-0.2	2
Cc1ccc(C)c(-n2c(Cc3cc(=O)[nH]c(=O)[nH]3)nnc2SCC(=O)NCC2CCCO2)c1 (stereo unspecified)	-4.3%	0.9	1	-7	0.8	17
CCOC(=O)c1[nH]c(C)c(CCC(=O)NCc2ccccc2)c1C	-0.8%	.	.	.	-0.5	16

Overlap with the part before: three entries; new compounds follow.
SMILES	PINK1 modulator	D2 agonist	Six1-Eya2 inh	D2 PAM	TRPML1 agonist	TRPML1 blocker
COC(=O)c1ccc(/C=C2\SC(=S)N(CCCC(=O)N3CCOCC3)C2=O)cc1	2.3%	-1.4	0	-5	-0.2	2
Cc1ccc(C)c(-n2c(Cc3cc(=O)[nH]c(=O)[nH]3)nnc2SCC(=O)NCC2CCCO2)c1 (stereo unspecified)	-4.3%	0.9	1	-7	0.8	17
CCOC(=O)c1[nH]c(C)c(CCC(=O)NCc2ccccc2)c1C	-0.8%	.	.	.	-0.5	16
COc1ccc(Nc2oc(/C=C/c3ccc(OC)c(OC)c3)nc2C#N)cc1	1.7%	.	.	.	1.6	24
COc1ccc(NS(=O)(=O)c2cccc(C(=O)NNC(=O)c3ccc(=O)[nH]c3)c2)cc1	-0.6%	-3.4	-4	-1	-0.7	1
O=c1[nH]c(N/N=C/c2ccc(O)cc2)nc2ccccc12	0.6%	-4.0	?	3	1.8	19
CN(Cc1ccccc1)C(=O)c1ccc(NC(=O)C2=CSCCO2)cc1	1.2%	1.4	7	-5	0.2	1
Cc1nnc(NC(=O)CSc2nccn2Cc2ccc(F)cc2)s1	-0.7%&-4.9%	-6.2	19	-10	0.3&0.0	?
O=C(O)/C=C/C(=O)N(CC1CCCO1)C1CC(=O)N(c2c(Cl)cccc2Cl)C1=O (stereo unspecified)	-0.2%	-0.2	-2	-4	-0.2	28
CC(/C=C/c1ccco1)=N\NC(=O)c1cccc(Cl)c1	-0.1%	-6.5	-5	-28	1.5	-19
CCSc1ccc([C@@H]2[C@@H]3C(=O)N(CC)C(=O)[C@@H]3[C@]3(C(=O)OC)CCCCN23)cc1	1.9%	-0.3	-5	-12	0.9	-4
COCCNC(=O)CN(C(=O)Cn1nnc2ccccc21)c1cc(C)cc(C)c1	-0.4%	6.5	-4	-3	-0.4	-6
Cc1cc(OCC(=O)N(Cc2cccs2)C2CCS(=O)(=O)C2)ccc1Cl (stereo unspecified)	-0.6%	2.2	8	-2	0.7	11
COc1ccc(F)cc1S(=O)(=O)Nc1cc2c3c(c1)CCN3C(=O)CC2	-0.6%	1.2	-6	0	-0.5	3
Cn1c(=O)c2sccc2n2c(CCC(=O)NCc3ccccc3Cl)nnc12	3.3%	.	.	.	-0.6	2
C/C(Cl)=C/Cn1c(=O)c2c(nc(Br)n2Cc2ccccc2)n(C)c1=O	4.7%	-2.2	2	-5	0.4	-15
S=c1nc(-c2ccc(Cl)cc2)[nH][nH]1	-2.6%	3.0	1	-20	-0.6	14
O=c1[nH]c(CN2CCCCC2)ccc1O	-0.1%	-3.2	-8	-10	1.0	-8

Given as labelled records: part of the list above
COc1ccc(NS(=O)(=O)c2cccc(C(=O)NNC(=O)c3ccc(=O)[nH]c3)c2)cc1
  PINK1 modulator = -0.6%; D2 agonist = -3.4; Six1-Eya2 inh = -4; D2 PAM = -1; TRPML1 agonist = -0.7; TRPML1 blocker = 1

S=c1nc(-c2ccc(Cl)cc2)[nH][nH]1
  PINK1 modulator = -2.6%; D2 agonist = 3.0; Six1-Eya2 inh = 1; D2 PAM = -20; TRPML1 agonist = -0.6; TRPML1 blocker = 14
